# KCNQ2 block: KCNQ2 channel blockers in CHO-K1 cells – cell-based, FluxOR thallium flux, B-score, primary screen (AID 2156) | hit rate 1.1% among 310,000 | B-score at 10 µM | O88943 | 20 min; stronger effect = lower value; only compounds with negative scores are shown here; some inactives read as strong as hits;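 active = fluorescence ratio B-score at most minus 3 library SDs, with starting brightness B-score within 2 library SDs, cut at about -5.5 in these data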
# Target sequence (O88943 whole entry, looked up): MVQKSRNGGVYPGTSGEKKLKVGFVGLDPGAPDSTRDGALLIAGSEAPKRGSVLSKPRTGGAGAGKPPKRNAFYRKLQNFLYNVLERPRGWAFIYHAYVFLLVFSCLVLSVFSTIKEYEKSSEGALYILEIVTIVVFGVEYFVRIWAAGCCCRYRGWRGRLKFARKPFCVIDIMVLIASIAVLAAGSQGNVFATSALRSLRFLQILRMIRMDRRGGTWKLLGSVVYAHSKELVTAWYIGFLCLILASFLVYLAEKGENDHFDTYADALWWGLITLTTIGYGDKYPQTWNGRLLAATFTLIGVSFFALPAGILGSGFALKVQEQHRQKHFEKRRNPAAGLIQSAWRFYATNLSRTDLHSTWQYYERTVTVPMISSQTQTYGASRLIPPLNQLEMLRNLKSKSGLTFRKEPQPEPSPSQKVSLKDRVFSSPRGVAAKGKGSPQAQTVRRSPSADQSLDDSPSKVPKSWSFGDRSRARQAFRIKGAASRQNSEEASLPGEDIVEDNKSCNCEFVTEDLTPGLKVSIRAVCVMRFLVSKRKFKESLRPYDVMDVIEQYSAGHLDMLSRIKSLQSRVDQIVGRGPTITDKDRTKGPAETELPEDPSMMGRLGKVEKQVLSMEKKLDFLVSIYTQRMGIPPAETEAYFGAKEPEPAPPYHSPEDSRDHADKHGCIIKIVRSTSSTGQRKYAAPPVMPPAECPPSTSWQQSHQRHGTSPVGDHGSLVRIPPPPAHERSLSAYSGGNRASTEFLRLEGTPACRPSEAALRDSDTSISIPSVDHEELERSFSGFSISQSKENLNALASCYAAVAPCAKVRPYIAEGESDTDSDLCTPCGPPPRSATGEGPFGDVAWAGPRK
# KCNQ2 block baseline: second read-out of KCNQ2 block, no call of its own (marks repeat the call); B-score; measured here: initial fluorescence intensity artifact check;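 brightness before thallium and not channel activity; 0 = typical well and far values either way flag optical interference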
# Active calls of the source: *; i = inactive.
KCNQ2 block	KCNQ2 block baseline	Molecule
i	-0.4	O=C(CSc1nnnn1-c1ccc(Cl)c(C(=O)O)c1)NC(c1ccccc1)c1ccccc1
i	-0.04	COCCCNC(=O)Cn1cc(C(=O)C2CC2)c2ccccc21
i	-1.1	Cc1ccc(/C=c2\sc3nc(-c4cccs4)nn3c2=O)o1
i	0.75	COc1ccc(C2C(C(=O)NCc3ccco3)c3ccccc3C(=O)N2C)cc1 (configuration not stated)
i	0.9	O=C(N/N=C1\CC(c2ccccc2)Oc2ccccc21)c1ccccn1 (configuration not stated)
i	0.2	N#Cc1ccc2c(c1)NC(=O)C1CCCN21 (configuration not stated)
i	-0.29	CC1(C)CC(=O)C(C=Nc2ccccc2C(=O)O)=C(O)C1
i	-0.05	O=C(CNC(=O)c1ccc(OC(F)F)cc1)NC1CCCc2ccccc21 (configuration not stated)
i	-0.14	Cc1cc(C)c(C)c(S(=O)(=O)N2CCN(CC(=O)NC(=O)NCc3ccccc3)CC2)c1C
i	0.44	CCc1ccc(-c2cc(C(F)(F)F)n3nc(C(=O)Nc4c(C)nn(Cc5ccccc5Cl)c4C)cc3n2)s1
i	0.27	CCCCCCn1c(CN2CCN(C)CC2)nc2c1c(=O)n(C)c(=O)n2C
i	-0.28	C=CCN(C)CC/C=C1\c2ccccc2CSc2ccccc21
i	1.3	Cc1ccc(-c2nc3cnccn3c2Nc2c(C)cccc2C)o1
i	-0.28	Nc1nonc1-n1nnc(C(=O)N/N=C\c2ccncc2)c1CN1CCCCC1
i	0.17	Cc1cc(-c2ccc(Cl)s2)n[nH]1
i	-0.07	CCOc1c(N2CCCCC2)c(=O)c1=O
i	-0.26	Cc1ccc(NS(=O)(=O)c2cc(C(=O)N3CCN(C)CC3)ccc2C)cc1
i	0.03	CCOc1ccc(CN(C)C(C)C(=O)Nc2ccc([N+](=O)[O-])cc2Cl)cc1OC (configuration not stated)
i	-0.08	Cc1ccc(NC(=S)NNC(=O)Nc2ccccc2)cc1
i	-0.57	O=C1C(Cc2c[nH]c3ccccc23)NC(=S)N1Cc1ccccc1 (configuration not stated)
i	0.57	S=c1[nH]nc(-c2cccc(Br)c2)o1
i	0.69	O=C(Cn1nnc(-c2ccccc2-n2cnnn2)n1)NCc1ccccc1
i	0.59	Cc1cc2oc(=O)cc(CN3CCC(C)CC3)c2cc1Cl
i	0.08	Cc1cc(Cl)ccc1OCCCC(=O)N1CCN(C(=O)c2ccco2)CC1
i	0.33	CN(C)C(CNC(=O)c1cccc(OC(F)F)c1)c1ccco1 (configuration not stated)
i	-2.5	Cc1ccc(NC(=O)Cn2cccc2C2=NC(c3ccccc3)CO2)cc1C (configuration not stated)
i	0.07	COc1ccc(S(=O)(=O)N(C(C)=O)c2ccc(OC(C)=O)c3ccccc23)cc1[N+](=O)[O-]
i	2.2	O=C1Nc2ccccc2C1c1ncc(C(F)(F)F)cc1Cl (configuration not stated)
i	-1.3	CC(C)(C)c1ccc(C(CC(=O)O)NC(=O)Cc2ccccc2)cc1 (configuration not stated)
i	42	Cc1ccc2c(c1)c(/C=C/c1cc[n+](C)cc1)c(C)n2C
i	-0.44	O=C(COC(=O)C1C2CC3OC(=O)C1C3C2)Nc1cccc(Cl)c1 (configuration not stated)
i	-0.39	CC(C)c1ccc(NC(=O)[C@@H](NC(=O)N2CC(=O)Nc3ccccc32)C(C)C)cc1
i	-0.22	Cc1ccc(S(=O)(=O)N(C)C)cc1NC(=S)N1CCN(Cc2ccc3c(c2)OCO3)CC1
i	-0.45	Cc1ccccc1OCc1nnc(SCc2cc(=O)[nH]c3ccccc23)o1
i	-0.14	Cc1ccc2c(CN3C(=O)NC(C)(c4ccc5c(c4)OCO5)C3=O)cc(=O)oc2c1 (configuration not stated)
-7.1*	-0.36*	Cc1cc(N2CCOCC2)ccc1/C=C\[N+](=O)[O-]
i	-0.85	Cc1ccc(NC(=O)/C(=C/c2ccco2)c2ccccc2)c(C)c1
i	0.31	COc1ccccc1OCC(=O)Nc1ccc2c(c1)OCO2
i	1.9	Cc1cc(NC(=O)NC2CC(=O)N(c3ccc4c(c3)OCCO4)C2)no1 (configuration not stated)
i	2.4	CCn1nnnc1SCC(=O)Nc1ccc2c(c1)OCO2
i	-0.36	CCCN(C(=O)CCSc1ccc(F)cc1)c1c(N)n(Cc2ccccc2)c(=O)[nH]c1=O
i	0.12	CS(=O)(=O)c1ccc2nc(NC(=O)c3ccc(N4C(=O)CCC4=O)cc3)sc2c1
-6.5*	0.44*	CCOC(=O)C1=C(N)Oc2ccc3ccccc3c2C1c1ccc(O)cc1 (configuration not stated)
i	0.1	Cc1cccc(-c2nc3ccccc3c(=O)n2NC(=O)c2cccnc2Cl)c1
i	-2.5	Cc1nc(-c2cc(-c3ccc(Cl)cc3)no2)cs1
i	-1.9	S=c1[nH]nc(Cc2cccs2)n1-c1cccc2ccccc12
i	0.19	C[C@H](NC(=O)c1ccccc1Cl)C(=O)NCCc1ccc(S(N)(=O)=O)cc1
i	-1.5	CC(C)(C)C(=O)NC(NC(=S)Nc1ccc(S(N)(=O)=O)cc1)C(Cl)(Cl)Cl (configuration not stated)
i	-1.6	Cc1cc(C)nc(SCc2ccc(C(=O)N/N=C3\CCCC(=O)C3)cc2)n1
i	-1.4	Cn1cnnc1Sc1ccc(C(=O)NCCC(c2ccccc2)c2ccccc2)cc1[N+](=O)[O-]
i	-0.9	CCOc1ccccc1CN1CCNC(=O)C1CC(=O)N(C)C1CCOCC1 (configuration not stated)
i	2.2	CCn1nnnc1SCC(=O)N1CCCc2ccccc21
i	1.9	CCn1c(SCC(=O)N2CC(=O)Nc3ccccc32)nnc1-c1ccoc1C
i	-0.69	CC(C)n1c(SCC(=O)Nc2nc3c(s2)CCCC3)nc2c1c(=O)n(C)c(=O)n2C
i	-0.51	Cc1nnc2n(-c3ccccc3)c(=O)c3ccccc3n12
i	-0.08	O=C1c2ccccc2-c2onc3ccc(N4CCCC4)c1c23
i	1.4	COc1ccc(Br)cc1CNC(=O)CCc1nc(-c2ccc(C)cc2)no1
i	1.2	CC(OC(=O)CCCc1c[nH]c2ccccc12)C(=O)Nc1ccc(S(N)(=O)=O)cc1 (configuration not stated)
i	-0.01	CCCCc1nnc(NC(=O)C2CCCO2)s1 (configuration not stated)
i	-0.22	NS(=O)(=O)c1cc2c(cc1Cl)NC(Cc1ccccc1)NS2(=O)=O (configuration not stated)

# 6 entries from above, with bars between the fields.
Molecule | KCNQ2 block | KCNQ2 block baseline
Cc1cc(N2CCOCC2)ccc1/C=C\[N+](=O)[O-] | -7.1* | -0.36*
Cc1ccc(NC(=O)/C(=C/c2ccco2)c2ccccc2)c(C)c1 | i | -0.85
COc1ccccc1OCC(=O)Nc1ccc2c(c1)OCO2 | i | 0.31
Cc1cc(NC(=O)NC2CC(=O)N(c3ccc4c(c3)OCCO4)C2)no1 (configuration not stated) | i | 1.9
CCn1nnnc1SCC(=O)Nc1ccc2c(c1)OCO2 | i | 2.4
CCCN(C(=O)CCSc1ccc(F)cc1)c1c(N)n(Cc2ccccc2)c(=O)[nH]c1=O | i | -0.36

# (next part)
KCNQ2 block	KCNQ2 block baseline	Molecule
i	2.1	CCOc1cc(NC(=S)NCCCN2CCOCC2)c(OCC)cc1NC(=O)c1ccc(OC)cc1
i	1.1	CC(C)Oc1ccc(C(=O)/C=C2/C(=O)Nc3ccccc32)cc1
i	-0.46	CN(C1CCCCC1)S(=O)(=O)c1ccc(NC(=O)CCC(=O)O)cc1
i	0.72	Cc1nn2c(NCc3ccccn3)c3c(nc2c1-c1ccccc1)CCC3
i	2.4	COc1ccc(NS(=O)(=O)c2ccc(NC(=O)C(C)(C(F)(F)F)C(F)(F)F)cc2)nn1
i	-0.27	O=C(CN1C(=O)NC2(CCCCCCC2)C1=O)N1CCOCC1
i	1.4	O=C(Nc1nc2ccccc2[nH]1)c1ccccc1
i	-1.4	CN(Cc1ccccc1)CC(O)COc1ccc(CNCc2ccc(Cl)s2)cc1 (configuration not stated)
i	-1	COc1cc(OC)cc(C(=O)Nc2ccc(S(=O)(=O)Nc3ccccn3)cc2)c1
i	-1.5	COc1cc(CN2CCN(C(=O)CC(C)C)CC2)cc(OC)c1OC
i	-1.3	C/C(=N\NC(=O)c1nnn(-c2nonc2N)c1C)c1ccc(-c2ccccc2)cc1
i	-1.6	O=C1c2ccccc2-c2ncnc3c(N4CCOCC4)cc(N4CCOCC4)c1c23
i	0.1	O=C(CSc1n[nH]c(-c2ccccn2)n1)Nc1ccccc1
i	-1.4	COc1ccc(C2=NOC(Cn3nc(C(=O)NCc4ccccc4OC)cc3-c3ccccc3)C2)cc1 (configuration not stated)
i	0.14	O=C(O)/C=C/C(=O)Nc1ccc2nccnc2c1
i	0.97	O=C(c1ccc([N+](=O)[O-])cc1)N(Cc1ccc(Cl)cc1)N1C(=O)CCCC1=O
i	-0.31	COC(CNC(=O)c1ccc2c(=O)n(Cc3ccc(Cl)cc3)c(=S)[nH]c2c1)OC
i	-0.41	CC1CCN(S(=O)(=O)c2ccc(C(=O)Nc3nnc(-c4ccccn4)o3)cc2)CC1
i	0.35	CC(C(=O)O)c1n[nH]c(=O)c2ccccc12 (configuration not stated)
i	0.24	CCOC(=O)c1c(N=CN(C)C)c(C#N)c2n1CCCC2
i	1.3	O=C(c1ccccc1)[C@@H]1[C@@H](C(=O)c2ccc(F)cc2)[C@@]2(C(=O)Nc3ccccc32)[C@H]2c3ccccc3C=CN12
i	-0.1	CC(C)c1ccc(NC(=O)COC(=O)C2=COCCO2)cc1
i	-0.43	CC1CN(C(=O)COC(=O)c2cc(Cl)ccc2Cl)CC(C)O1 (configuration not stated)
i	-1.4	COc1ccc(-c2cc(=O)c3ccccc3o2)cc1
-7*	0.65*	COc1ccc(CN(C(=O)CSc2nnc(-c3c[nH]c4ccccc34)o2)c2ccc(F)cc2)cc1OC
i	-1.1	COc1cccc(CNC(=O)N2CCN(c3ccccc3C)CC2)c1
i	-0.1	O=c1[nH]n(Cc2ccccc2)c2ccccc12
i	0.9	CCn1c(SCC(=O)Nc2cc(C)on2)nc2c([nH]c3ccccc32)c1=O
i	0.87	NS(=O)(=O)c1ccc(CCNC(=O)CNS(=O)(=O)c2cccc(Br)c2)cc1
i	-0.06	Cc1nn(-c2ccccc2)c2sc(C(=O)NNC(=O)COc3cccc4ccccc34)cc12
i	0.25	O=S(=O)(N/N=C\c1ccc2c(c1)OCO2)c1ccc(Cl)cc1
i	3.1	CCOc1ccc(NC(=O)c2cccc3c2C(=O)N(Cc2cccnc2)C3)cc1
i	0.95	CN(C)/C=C(\C#N)C(=O)N/N=C(\CC(=O)C(F)(F)F)c1ccco1
i	-1.8	Cc1ccc(NS(=O)(=O)c2cc(NC(=O)c3ccc4c(c3)NC(=O)CS4)ccc2Cl)c(C)c1
i	0.54	O=C1N=c2ccccc2=C1c1[nH]c(=S)[nH]c1O
i	2	O=C(NCC1CCCO1)NC12CC3CC(CC(C3)C1)C2 (configuration not stated)
i	-1.3	COc1ccc(Nc2nc(C)nc3c2nnn3Cc2ccccc2Cl)c(OC)c1
i	-0.02	Cc1ccc(Cl)cc1NC(=O)Cn1cc(C(F)(F)F)cc(Cl)c1=O
i	0.97	CCn1c(SCC(=O)Nc2nccs2)nnc1-c1ccc(S(=O)(=O)N2CCCCC2)cc1
i	0.28	CSCCC(NS(=O)(=O)c1cccc(C(F)(F)F)c1)C(=O)Nc1ccccc1N1CCCC1 (configuration not stated)
i	-1.1	CCn1c(C(=O)NCc2ccccn2)cc2sccc21
i	0.44	COc1ccc(NC(=O)/C(C#N)=C/c2c(C)nn(-c3ccc(F)cc3)c2Cl)cc1OC
i	1.5	CCN(C(=S)NC(=O)CCc1ccccc1)c1ccccc1
i	-0.43	COc1ccc(-n2nc(C(=O)NCC(=O)Nc3cc(OC)c(OC)c(OC)c3)c3ccccc3c2=O)cc1
i	0.07	COc1cccc(C(=O)Nc2cc(Cl)c(O)c(Cl)c2)c1
i	-1.1	Cc1ccc(-n2ncc(C(=O)Nc3cc(Cl)cc(Cl)c3)c2C2CCNCC2)cc1C
i	0.58	Cc1csc(NC(=O)C(Cc2ccccc2)n2cccc2)n1 (configuration not stated)
i	0.36	Cc1cc(C(=O)N2CCCC(N3CCN(c4cccc(Cl)c4)CC3)C2)n(C)n1 (configuration not stated)
i	1.6	Cc1cccc(N=N/C(=C\O)C(=O)c2ccc(Br)cc2)c1
i	-1	S=c1nc(C23CC4CC(CC(C4)C2)C3)nc2sccn12
i	-0.59	CCOC(=O)CSc1ccc2nnc(-c3cccnc3)n2n1
i	2	CC(C)C1(C(C)C)OC(=O)c2ccccc21
i	0.1	COc1ccc(OC)c(NS(=O)(=O)c2ccc(NC(=O)C3COc4ccccc4O3)cc2)c1 (configuration not stated)
i	1	O=C(NC1CC1)c1cc2cc3ccccc3nc2s1
i	3.9	COc1ccc(C2=CC(c3ccc(Cl)cc3)n3cnnc3N2)cc1OC (configuration not stated)
i	0.97	O=S(=O)(c1ccc2c(c1)OCCO2)N1CCC(n2cnc3cc(F)ccc32)CC1
i	-0.08	CCN1C(=O)N[C@@H](CCc2ccccc2)C(C(=O)OC)=C1C
i	0.38	CC(C)(C)C(=O)C[n+]1cccc(C(N)=O)c1
i	-0.66	O=C(N/C(=C\c1ccc([N+](=O)[O-])cc1)C(=O)N1CCCCC1)c1ccco1
i	-0.17	Cc1ccccc1Cn1cnc2c(nnn2Cc2ccc(F)cc2)c1=O
i	-1.6	CCn1ncc([N+](=O)[O-])c1C(=O)N1CCc2ccccc2C1

# Five records drawn at random from those above, as already listed:
KCNQ2 block	KCNQ2 block baseline	Molecule
i	0.54	O=C1N=c2ccccc2=C1c1[nH]c(=S)[nH]c1O
-7.1*	-0.36*	Cc1cc(N2CCOCC2)ccc1/C=C\[N+](=O)[O-]
i	1.3	O=C(c1ccccc1)[C@@H]1[C@@H](C(=O)c2ccc(F)cc2)[C@@]2(C(=O)Nc3ccccc32)[C@H]2c3ccccc3C=CN12
i	0.08	Cc1cc(Cl)ccc1OCCCC(=O)N1CCN(C(=O)c2ccco2)CC1
i	0.2	N#Cc1ccc2c(c1)NC(=O)C1CCCN21 (configuration not stated)

# Some of the compounds tested; count on the stated rates, not on these rows.
